High-throughput results: PubChem BioAssay, National Center for Advancing Translational Sciences (NCATS)
NPR1 antag = human Npr1 receptor antagonism. P16066. HEK293 hNpr1 GloSensor cGMP, ANP-stimulated luminescence. Potency, µM (top dose mostly 46.3 µM), without a hit: at the top dose activity change, negative = inhibition, usual class: inhibitors. hit rate 1.6% among 76,000. AID 1347048; active = well fitted inhibition curve with a large enough effect; inconclusive = small, poorly fitted or top-dose-only effect; inactive = no such curve, though single readings can be large or run the other way;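 further: nearly all actives have a fitted effect of over 60% in size; nearly all hits also lower the signal before the agonist is added; a reference antagonist and vehicle were the controls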
Target sequence (P16066 whole entry, looked up): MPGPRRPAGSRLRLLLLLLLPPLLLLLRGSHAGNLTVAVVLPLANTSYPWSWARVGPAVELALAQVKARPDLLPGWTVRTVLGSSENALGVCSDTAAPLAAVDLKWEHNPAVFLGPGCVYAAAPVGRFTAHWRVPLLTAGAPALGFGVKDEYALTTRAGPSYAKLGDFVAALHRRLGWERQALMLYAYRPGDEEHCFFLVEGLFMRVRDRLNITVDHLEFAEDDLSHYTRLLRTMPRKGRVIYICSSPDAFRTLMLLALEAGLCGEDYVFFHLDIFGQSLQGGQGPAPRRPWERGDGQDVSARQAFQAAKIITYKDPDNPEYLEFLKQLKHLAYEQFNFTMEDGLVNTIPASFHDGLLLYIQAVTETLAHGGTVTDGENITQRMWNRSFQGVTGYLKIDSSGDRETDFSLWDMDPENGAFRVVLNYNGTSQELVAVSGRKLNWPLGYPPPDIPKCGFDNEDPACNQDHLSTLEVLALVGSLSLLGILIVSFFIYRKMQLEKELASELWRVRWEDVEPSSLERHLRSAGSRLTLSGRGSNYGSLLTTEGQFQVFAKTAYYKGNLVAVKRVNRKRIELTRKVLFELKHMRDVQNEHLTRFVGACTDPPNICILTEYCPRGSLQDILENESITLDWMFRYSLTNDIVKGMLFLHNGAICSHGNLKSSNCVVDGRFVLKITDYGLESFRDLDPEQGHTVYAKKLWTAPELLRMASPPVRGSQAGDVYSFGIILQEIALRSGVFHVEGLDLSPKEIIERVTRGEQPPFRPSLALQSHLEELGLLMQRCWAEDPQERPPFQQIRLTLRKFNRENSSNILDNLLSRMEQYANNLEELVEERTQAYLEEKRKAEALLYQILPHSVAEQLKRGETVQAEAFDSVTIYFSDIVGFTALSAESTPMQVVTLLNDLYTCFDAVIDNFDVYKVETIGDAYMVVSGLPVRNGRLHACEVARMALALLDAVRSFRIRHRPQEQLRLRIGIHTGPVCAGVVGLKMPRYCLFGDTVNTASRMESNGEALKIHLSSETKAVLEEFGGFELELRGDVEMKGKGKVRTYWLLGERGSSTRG
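HEK293 cells stably expressing human Npr1 and cGMP GloSensor pGS-40F, loaded 2 h with 2% GloSensor reagent, given compound 30 min at room temperature. Luminescence read before and 20 min after 0.1 nM hNppA.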
An asterisk follows results filed as active; ? = inconclusive; [ ] = another dose, or the depositor's remark. On the % scale 0 is the no-effect control and ±100 the full control effect; potency means the concentration at half of the fitted maximal effect.

SMILES	NPR1 antag
CN1CC(=O)N(c2ccc(Cl)cc2)Cc2c(NCc3ccc(F)cc3)ncnc21	2.6%
O=C(O)CCC(=O)N1C[C@@H]2OCC(=O)N(Cc3ccccc3)[C@@H]2C1	2.5%[70.6 µM]
Cc1scc(C(=O)N2CCCC3(CCOC3)C2)c1-c1ccccc1 (stereo not drawn)	-5.6%
Cc1noc(C)c1-c1cc2c(cc(C)n2C)c(N2CCN(c3ccccn3)CC2)n1	3.3%[70.6 µM]
COCCNC(=O)C[C@@H]1C[C@H]2O[C@H](CNCc3ccccc3OC(F)(F)F)[C@@H](O)[C@H]2O1	-1.1%
COc1ccc(CN2C[C@@H]3[C@H](C2)N(CC(C)C)C(=O)C(C)(C)[S+]3(=O)[O-])cc1O	2.1%[70.6 µM]
Cc1cccc(Cl)c1NC(=O)N1CCC2(CCCN(C(C)C)C2=O)C1 (stereo not drawn)	2.5%
Cc1ccccc1-c1cccc(CCOc2cnc3c(ccn3CC(=O)O)c2)c1	-0.3%[70.6 µM]
O=C1c2c(nc(CNCc3cccc(Cl)c3)n2Cc2ccccc2)NCCN1Cc1ccccc1	?
O=C(CN1CC2CC(C1)[C@H]1CCCC(=O)N1C2)N1CCC(N2CCCCC2)CC1 (stereo partly drawn)	-11.6%
CCCn1c(C)cnc1CC1CCCN(S(=O)(=O)CCC)C1 (stereo not drawn)	3.5%
c1ccc(CN2Cc3[nH]cnc3C[C@H]2c2nc(-c3ccccn3)no2)cc1	-3.4%[70.6 µM]
CC(=O)c1cc(CN2CCC(CO)(Cc3ccccc3Cl)CC2)cs1	0.1%
O=C(O)CCC(=O)N1C[C@@H]2C[C@H]1C(=O)N(Cc1ccc(OC(F)(F)F)cc1)c1ccccc1O2	-1.0%
COCCO[C@H]1C(=O)N(C2CCN(C(=O)c3ccc(OC)nc3)CC2)[C@H]1c1ccncc1	2.9%
COc1cc(N2CCC(CO)(Cc3ccccc3C(F)(F)F)CC2)ncn1	11.2µM*
COc1cccc(CNC(=O)C(c2ccc(F)cc2)N(C)C)c1OC (stereo not drawn)	-1.3%
COc1ccc(Cn2c(C3CCN(C(=O)c4ccc(OC)cc4)CC3)n[nH]c2=O)cc1	1.0%
CC1CCC2(CC1)OCC(C(=O)NCc1ccccc1)N2C(=O)c1ccc(Cl)c(Cl)c1 (stereo not drawn)	0.4%
COC(=O)c1ccc2nc(C[C@@H]3C[C@@H](C(C)C)[C@H](CN)C=C3C)[nH]c2c1	-10.2%[70.6 µM]
CC1=C[C@@H](CNS(=O)(=O)c2ccccc2)[C@H](C(C)C)C[C@H]1Cc1nc2ccncc2[nH]1	-23.5%[70.6 µM]
CS(=O)(=O)N1CCCN(C(=O)c2ccsc2)CCNC(=O)CC1c1ccccc1 (stereo not drawn)	-1.5%
O=C(C1CC1)N1CCC(c2nn(-c3ccc(F)cc3)c(=O)[nH]2)CC1	9.6%[70.6 µM]
O=C1CC(NS(=O)(=O)N2CCCC2)CN1Cc1ccc(F)cc1 (stereo not drawn)	-1.0%
COc1ccc(CN2CC(Oc3ccccc3C(=O)NCc3ccccc3)C2)c(OC)c1	?

Reformatted with values ahead of the structure: part of the list above.
| NPR1 antag | smiles |
| --- | --- |
| 9.6%[70.6 µM] | O=C(C1CC1)N1CCC(c2nn(-c3ccc(F)cc3)c(=O)[nH]2)CC1 |
| -1.0% | O=C1CC(NS(=O)(=O)N2CCCC2)CN1Cc1ccc(F)cc1 (stereo not drawn) |

Later entries
SMILES	NPR1 antag
Cc1noc([C@@H]2CC(F)(F)CN2C(=O)c2ocnc2C)n1	0.1%
Cc1ccc2c(C)c(C(=O)N(C)CCOc3ccccc3)oc2c1C	0.9%
CCNC(=O)N1Cc2[nH]cnc2C[C@H]1C(=O)NCc1ccccc1	9.6%[70.6 µM]
O=C(C1CCOCC1)N1CCC(N2C(=O)C(OCC3CC3)C23CCCCC3)CC1 (stereo not drawn)	4.8%
O=C(Nc1ccc(F)cc1F)N1C[C@@H](F)[C@@H](OCc2nc3ccccc3o2)C1	-5.8%[70.6 µM]
Cc1ncccc1C(=O)N1CC2CC(C1)[C@H]1CCCC(=O)N1C2 (stereo partly drawn)	-2.5%
Cc1ccc2[nH]c(=O)c(CCC(=O)N3CCCCC3)cc2c1	3.5%
COc1ccc(CNC(=O)[C@H]2O[C@H](CCN3CCN(c4ccccc4OC)CC3)CC[C@@H]2O)cc1	6.8%
O=C(Nc1ccon1)[C@@H]1C[C@@H](c2ccc(F)cc2)N(Cc2ccccc2)C1	15.8µM*
COc1ncccc1CNC[C@H]1O[C@@H]2C[C@@H](CC(=O)NCc3nccn3C)O[C@@H]2[C@@H]1O	2.7%[70.6 µM]
O=C(c1cn(Cc2ccccc2F)nn1)N1CCC(O)(c2cccc(C(F)(F)F)c2)CC1	-11.4%
CCc1ccccc1C(=O)N[C@@H]1c2ccccc2C2(CCNCC2)[C@H]1OC	3.8%
CN1Cc2ccc(NCc3ccccc3)nc2C(C)(C(=O)NCc2cccnc2)C1 (stereo not drawn)	-8.1%[70.6 µM]
Cc1nnc(-c2cc(-c3cccc(CO)c3)ccn2)n1CCN1CCOCC1	5.7%[70.6 µM]
COC1C(=O)N(C2CCN(Cc3ccc(O)cc3)CC2)C12CCOCC2 (stereo not drawn)	1.0%
Cc1noc(-c2cn(C3CCN(C(=O)c4ccc(OC(F)(F)F)cc4)CC3)nn2)n1	5.6%
C=CCC1(C(=O)O)CCCN(Cc2cc3c(cc2OC)OCO3)C1 (stereo not drawn)	1.3%
CNC(=O)c1cccc(-c2cnc3[nH]cc(CC(=O)Nc4ccccc4Cl)c3c2)c1	1.4%[70.6 µM]
CC(C)c1nc2c(c(-c3ccc(O)cc3)n1)CCN(CC1CCCCC1)CC2	7.3%
COc1ccc(NC(=O)Cn2c(N(C)Cc3ccccc3)nc(C)cc2=O)cc1OC	4.47µM*
C#CCN(C)Cc1nc(C2(O)CCN(C(=O)c3ccccc3)CC2)cs1	-2.0%[70.6 µM]
Cc1ncsc1C(=O)N1CCNc2cnc(Nc3cccc(F)c3)nc2C1	14.1µM*
COC1CCOC2(CCN(C(=O)Nc3cccc(F)c3)CC2)C1 (stereo not drawn)	-2.9%
CN(C)C(=O)c1ccc2c(c1)n(Cc1cccc(F)c1)c(=O)c1ccnn12	0.4%
COCCO[C@H]1COCCN(S(=O)(=O)c2ccc(F)cc2)C1	0.5%[70.6 µM]

Shown as a hit in NPR1 antag, among the entries above:
SMILES	NPR1 antag
COc1cc(N2CCC(CO)(Cc3ccccc3C(F)(F)F)CC2)ncn1	11.2µM*
O=C(Nc1ccon1)[C@@H]1C[C@@H](c2ccc(F)cc2)N(Cc2ccccc2)C1	15.8µM*
COc1ccc(NC(=O)Cn2c(N(C)Cc3ccccc3)nc(C)cc2=O)cc1OC	4.47µM*
Cc1ncsc1C(=O)N1CCNc2cnc(Nc3cccc(F)c3)nc2C1	14.1µM*

Continuation.
SMILES	NPR1 antag
Cc1noc([C@@H](C)NC(=O)c2cccs2)c1C(=O)O	2.1%[70.6 µM]
CO[C@H]1COCCN(C(=O)c2cc(C)oc2C(F)(F)F)C1	2.1%[70.6 µM]
COCCn1c(C)cc(C(=O)N2CCC(N3C[C@H](O)C[C@H]3C(=O)NC3CCCCC3)CC2)c1C	2.0%
CC(C)c1nc2c(c(-c3ccc(O)cc3)n1)CN(Cc1cccn1C)CC2	4.7%
C#CCNC(=O)C[C@@H]1c2nc(NC(=O)c3ccc(F)cc3)sc2C[C@@H]2[C@](C)(CO)[C@H](O)CC[C@]21C	1.0%
CCn1nc(C(C)C)cc1C(=O)NCCCn1nc(C)c(Cl)c1C	-2.1%
Cn1cc(CN2CCNc3cc(Nc4cccnc4)ncc3C2)cn1	1.3%[70.6 µM]
COCc1ncc(C)n1CCNC(=O)Cc1cccc(F)c1	0.3%
CNC(=O)C1CCN(C(=O)c2cc(COc3ccc4c(c3)OCO4)[nH]n2)C1 (stereo not drawn)	-1.6%
CC(=O)N1CCCN(CC[C@H]2CN(C(=O)c3ccc(C(F)(F)F)cc3)CC[C@H]2CC(=O)O)CC1	3.8%
COc1ccc(NC(=O)Nc2cccc(-c3ccc(N4CCOCC4)nn3)c2)cc1Cl	12.6µM*
Cc1cc(=O)n(CC(=O)Nc2cc(C)on2)c(N2CCOCC2)n1	3.2%
Cc1cn2nc(C(=O)NCC(C)c3ccccc3)cc2c(N2CCCC2)n1 (stereo not drawn)	16.1%
Cc1cc(C)n(CCC(=O)N2CCCC(Cc3noc(-c4ccccn4)n3)C2)n1 (stereo not drawn)	9.9%
CCc1ccc(CN2CCc3nc(N4CCN(C)CC4)[nH]c(=O)c3CC2)cc1	3.9%
CC(C)NC(=O)CC1Sc2ncccc2N(C)C1=O (stereo not drawn)	1.7%
CSc1ncccc1C(=O)NC1CC(c2cc(=O)[nH]c(N)n2)C1 (stereo not drawn)	2.9%
COCC1CN(S(=O)(=O)c2ccc(OC)c(Cl)c2)CC12CCNCC2 (stereo not drawn)	-1.6%
Cc1ccc(NC(=O)CC2CCCN(c3cnn(C)c(=O)c3)C2)cc1 (stereo not drawn)	7.5%
Cc1nnnn1-c1cccc(C(=O)N[C@H]2C[C@@H]3OCC[C@H]23)c1	-1.9%
CN1C(=O)C(c2ccccc2)CC12CCN(S(=O)(=O)N(C)C)CC2 (stereo not drawn)	3.1%
CCCN(CC1CCOC1)C(=O)Nc1ccc(Cl)cc1C (stereo not drawn)	5.8%
CCNC(=O)N1CCCC(Cc2noc(-c3cnccn3)n2)C1 (stereo not drawn)	27.9%
Cc1nn2c(c1-c1ccccc1Oc1ccccc1)N(C(=O)c1ccnn1C)CCC2	-15.2%[70.6 µM]
CCc1nc2c(c(-c3ccc(Cl)cc3)n1)CN(C(=O)Cc1ccccn1)CC2	3.3%

Further records
SMILES	NPR1 antag
CC(=O)N1CCCC2(C1)CN(C)c1ccc(C(=O)NCC3CC3)cc12 (stereo not drawn)	0.7%[70.6 µM]
CCC(CC)N1C[C@@H](CO)[C@H](c2nc(CCOC)no2)C1	0.8%
COc1ccc(CN2CC[C@@H]3[C@H]2C(=O)NC[C@H](CCC(=O)NCc2ccco2)N3C)cc1	0.3%
COCCC(=O)N[C@H]1CC[C@]2(C)CCC([C@H](C)C(=O)N3CCc4ccccc4C3)[C@H](O)[C@H]2[C@@H]1C (stereo partly drawn)	-1.7%
O=C(CCc1ccc2c(c1)CN(C(=O)C1CC1)CCO2)NCCCn1cccn1	4.8%
CC(C)Oc1ccccc1CN1CCC([C@@H]2CNC[C@H]2CO)CC1	1.5%
Cc1cc(C(=O)N[C@@H]2CN(c3ccncn3)C[C@H]2CN(C)C)no1	-0.4%
O=C1NC2(CCN(C(=O)OCc3ccccc3)C2)N=C1c1ccccn1 (stereo not drawn)	17.5%
Cc1ccc2oc([C@H]3CCN(S(=O)(=O)c4ccc(F)cc4)C3)nc2c1	?
CC(C)CN(CC1CN(C(=O)Nc2ccccc2)CCO1)C(=O)c1ccccc1F (stereo not drawn)	5.7%
COc1ccc([C@H]2C[C@@H](O)[C@@H](O)[C@@H]2NC(=O)C2CCCC2)cc1	-6.5%[70.6 µM]
CCc1nccn1CCNC(=O)c1cccc(C2CCNC2)c1 (stereo not drawn)	0.9%
CN(C)Cc1nnc(C2CCN(C(=O)CCc3ccncc3)CC2)n1C	1.8%
CN1CCOC[C@H]2CCN(C(=O)c3cccs3)C[C@H]21	-0.3%
O=C(NC1CCCCC1)O[C@@H]1CO[C@H]2[C@@H]1OC[C@@H]2NS(=O)(=O)c1ccc(Cl)cc1	-2.4%
CS(=O)(=O)N1CCCC1c1noc(CCC(=O)N2CCC(N3CCCCC3)CC2)n1 (stereo not drawn)	-11.8%
CC(C)CN1C(=O)c2cccn2CC1C(=O)NCCCN1CCN(C)CC1 (stereo not drawn)	-2.6%
COC[C@H]1NC(=O)CC[C@H]1C(=O)Nc1ccc2c(c1)OCCO2	-0.8%
C[C@@H](NC(=O)c1ccccc1)c1c(-c2ccc(F)cc2)noc1C(=O)O	2.3%[70.6 µM]
Cc1nn2c(c1-c1ccccc1OCc1ccccc1)N(C(=O)CCc1cccnc1)CCC2	?
CC#CCn1cc2c3c(cccc31)[C@H](CC(C)C)N[C@H](C(=O)NCc1cccs1)C2	-14.6%[70.6 µM]
CN1Cc2nc(-c3cnn(C)c3)ccc2OCC1=O	5.0%[70.6 µM]
O=C(Cc1ccccc1)NC[C@H]1Cn2c(-c3ccc4c(c3)OCO4)cnc2CO1	0.9%[70.6 µM]
CC(C)(C)C(=O)N1CCC2(CC1)C(=O)N(CC(=O)Nc1cccc(Cl)c1)CN2c1ccccc1	-1.6%
CCOc1cc(=O)n2c(c1C(=O)NCc1cccc(Cl)c1)CCCC2	0.0%

Following part.
SMILES	NPR1 antag
O=C1CCN(S(=O)(=O)c2ccccc2)CCCN(Cc2cn[nH]c2-c2cccs2)CCN1	3.8%
Cc1cnccc1CNC(=O)CC(c1cccc(O)c1)c1cccc(Cl)c1 (stereo not drawn)	-12.6%
CC1(C)[C@H](Cc2cc(-c3ccccc3)on2)C[C@@H]1NS(=O)(=O)c1ccccc1	?
Cc1nn2c(c1-c1ccccc1Oc1ccccc1)N(Cc1ccc(C(=O)O)s1)CCC2	?
O=C(Nc1cccc(Cl)c1)c1cc(-c2ccc[nH]2)n[nH]1	?
CCN1CC(C(=O)N(C)Cc2ccc(Oc3ccccc3)cc2)CCC1=O (stereo not drawn)	?

Part of the list above in another layout:
compound: Cc1nn2c(c1-c1ccccc1Oc1ccccc1)N(Cc1ccc(C(=O)O)s1)CCC2
  NPR1 antag = ?
compound: Cc1cnccc1CNC(=O)CC(c1cccc(O)c1)c1cccc(Cl)c1 (stereo not drawn)
  NPR1 antag = -12.6%
compound: CC1(C)[C@H](Cc2cc(-c3ccccc3)on2)C[C@@H]1NS(=O)(=O)c1ccccc1
  NPR1 antag = ?
compound: O=C(Nc1cccc(Cl)c1)c1cc(-c2ccc[nH]2)n[nH]1
  NPR1 antag = ?

A portion of the library; rates above refer to the full screens.
